Mtb bLac sens: beta-lactam sensitization of Mtb H37Rv; inhibition, % at 25 µM; AID 434955; 330,000 tested, 0.27% active; M. tuberculosis H37Rv growth with meropenem, percent inhibition; hits of this screen are not shown here;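 active = about 74% or more and at least 40 points above the plate without the antibiotic, then above 30% in a dose series; inconclusive = first-round hits that could not be retested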;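 also: growth measured after seven days incubation then overnight dye step; 0% = bacteria only wells and 100% = bacteria with antibiotic; twin plates without the antibiotic show which effects depend on it; some results filed as inactive read as strong as hits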
YopH PTP inh: blocks Yersinia enterocolitica YopH tyrosine phosphatase; fluorescence Ex485/Em525; inhibition, %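 (about 10 µM by stock and volumes)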; 140,000 tested, 0.16% active; AID 898;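 active = inhibition of 50% or more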;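 also: controls were vehicle for no effect and minimum signal wells for full effect; inactives centre near -20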
RecA splice inh: blocks M. tuberculosis RecA intein splicing. P9WHJ3. cell-free RecA intein splicing, fluorescence. inhibition, %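 (about 9 µM by stock and volumes)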. 290,000 tested, 0.75% active. AID 2221; in the data active = inhibition above about 30%; inconclusive = no clear call, values can overlap the other calls;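 also: 0% = vehicle wells and 100% = reference inhibitor control wells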
Target sequence (P9WHJ3 whole entry, looked up, canonical isoform): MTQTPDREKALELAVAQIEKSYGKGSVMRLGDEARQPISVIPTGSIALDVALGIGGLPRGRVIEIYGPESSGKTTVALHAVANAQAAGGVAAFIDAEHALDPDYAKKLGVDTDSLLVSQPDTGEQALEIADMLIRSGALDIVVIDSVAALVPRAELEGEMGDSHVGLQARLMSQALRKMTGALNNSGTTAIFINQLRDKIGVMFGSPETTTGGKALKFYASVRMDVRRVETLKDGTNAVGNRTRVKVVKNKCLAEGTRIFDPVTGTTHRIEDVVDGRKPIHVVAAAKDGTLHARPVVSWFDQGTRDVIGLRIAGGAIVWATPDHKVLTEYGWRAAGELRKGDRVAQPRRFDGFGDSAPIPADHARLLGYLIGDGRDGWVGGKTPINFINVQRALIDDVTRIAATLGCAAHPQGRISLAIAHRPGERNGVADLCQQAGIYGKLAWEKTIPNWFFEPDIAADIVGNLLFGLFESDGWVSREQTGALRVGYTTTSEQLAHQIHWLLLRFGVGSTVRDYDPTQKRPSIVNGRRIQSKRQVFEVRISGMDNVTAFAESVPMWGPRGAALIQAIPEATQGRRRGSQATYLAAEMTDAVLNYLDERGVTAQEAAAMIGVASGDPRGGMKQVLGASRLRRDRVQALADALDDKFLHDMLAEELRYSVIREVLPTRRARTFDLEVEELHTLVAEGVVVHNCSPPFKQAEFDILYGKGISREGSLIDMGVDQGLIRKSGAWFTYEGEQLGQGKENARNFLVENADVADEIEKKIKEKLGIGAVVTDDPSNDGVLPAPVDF
Mtb H37Rv: M. tuberculosis H37Rv growth inhibitors, H37Rv strain (AID 1626) | 220,000 tested, 0.95% active | one-dose inhibition, % at 10 µM; IC50 in µM for titrated hits | M. tuberculosis H37Rv growth inhibition; higher % means a stronger effect;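 active = confirmed in a dose series; inconclusive = inhibition above 80% but not taken into the dose series; inactive = below 80% or under 30% at every dose of the series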;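 also: bacteria incubated seven days before Alamar blue readout; 0% = bacteria only wells and 100% = bacteria with antibiotic wells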
Arbovirus anti: blocks arbovirus infection | arbovirus infection cell-based antiviral screen | inhibition, % at 10 µM | 200,000 tested, 0.37% active | AID 1251;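 active = inhibition from about 30%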;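 also: bluetongue infection of BSR cells; cell survival read as ATP light after 72 h; 0% = infected wells without compound and 100% = uninfected wells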
Arbovirus anti repeat: recorded beside Arbovirus anti, whose call it bears; inhibition, %; measured here: 10K subset replicate screen; many hits read low in the repeat;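 first of two repeat runs on a subset; 0% = infected and 100% = uninfected wells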
* marks the source's active call; other numbers are inactive results.

For CC(C)n1cc(C(=O)c2cc(Br)ccc2O)cc(C#N)c1=O the results were Mtb bLac sens -13.8, YopH PTP inh 12.9, RecA splice inh -2.7, Mtb H37Rv 2.4% and Arbovirus anti 4.9.
For COC(=O)c1ccc(N=NN2CCOCC2)cc1 the results were Mtb bLac sens 4.5, YopH PTP inh -23.8, RecA splice inh 3.7, Mtb H37Rv -2.5% and Arbovirus anti -8.2.
For O=C(Nc1ccccc1C(=O)N1CCCC1)c1ccc(Cl)cc1Cl the results were Mtb bLac sens 0.3 and RecA splice inh 2.5.
For CN(C)c1nc(OCCOC(=O)c2ccccc2)nc(N(C)C)n1 the results were Mtb bLac sens 3.4, YopH PTP inh -32.0, RecA splice inh 1.6, Mtb H37Rv -12.2% and Arbovirus anti 5.2.
Screening CC1CC(=O)Nc2ccccc2N1S(=O)(=O)c1ccc(F)cc1F (centres undefined) returned Mtb bLac sens 8.2, RecA splice inh -2.5 and Mtb H37Rv 4.0%.
`CCN1C(=O)NC(=O)/C(=C\c2cn(CC(=O)N3CCCC3)c3ccccc23)C1=O` gave Mtb bLac sens 11.9 and RecA splice inh 3.7.
COc1ccc(S(=O)(=O)NCc2ccc(C(=O)N3CCC4(CC3)OCCO4)cc2)cc1 was read as Mtb bLac sens -5.3, YopH PTP inh -20.4, RecA splice inh -0.2, Mtb H37Rv -7.0% and Arbovirus anti -7.4.
`CC(Nc1ncnc2nc[nH]c12)c1ccccc1` (centres undefined) gave Mtb bLac sens 0.8, YopH PTP inh -27.8, RecA splice inh -2.1, Mtb H37Rv 1.1%, Arbovirus anti 5.6 and Arbovirus anti repeat 4.5.
`CCOC(=O)N1CCN(C(=O)c2c(N)no[n+]2[O-])CC1` gave Mtb bLac sens -2.6, RecA splice inh 1.2 and Arbovirus anti 6.8.
Screening Cc1nnc(SCC(=O)Nc2cccc([N+](=O)[O-])c2)n1CC1CCCO1 (centres undefined) returned Mtb bLac sens -0.7 and RecA splice inh -1.0.
Screening O=C(NCc1ccccc1F)C1CCN(C(=O)c2sccc2-n2cccc2)CC1 returned Mtb bLac sens -5.6, RecA splice inh -3.0, Mtb H37Rv -1.4% and Arbovirus anti 10.8.
`O=c1[nH]c2c(s1)C(c1ccccc1)C1C3CCC(C3)C1S2` (centres undefined) gave Mtb bLac sens -1.5, YopH PTP inh -16.2, RecA splice inh 0.8, Mtb H37Rv -2.1% and Arbovirus anti 28.6.
CCOc1ccc(S(=O)(=O)N(CC)CC(=O)NCc2ccncc2)cc1C was read as Mtb bLac sens -3.4 and RecA splice inh -1.4.
`CCOC(=O)c1sc(N)nc1C(C)(C)C` gave Mtb bLac sens 4.3, YopH PTP inh -20.5, RecA splice inh 2.3, Mtb H37Rv -4.2% and Arbovirus anti 3.6.
O=C(NC1CC2CCC(C1)N2Cc1ccccc1)c1ccccc1Br (centres undefined) was read as Mtb bLac sens -9.6 and RecA splice inh 0.5.
O=C(Cc1ccc(F)cc1)NC1CCSC1=O (centres undefined) was read as Mtb bLac sens -3.8, RecA splice inh -6.2, Mtb H37Rv -0.3% and Arbovirus anti -2.5.
Screening Cc1nn(C)c(=O)n1N(C)c1ncc(C(F)(F)F)cc1Cl returned Mtb bLac sens -3.7, RecA splice inh -0.1, Mtb H37Rv 3.3% and Arbovirus anti 8.8.
For Cc1nc(NCCc2ccccc2)c2oc3ccccc3c2n1 the results were Mtb bLac sens 90.5, YopH PTP inh -19.8, RecA splice inh 10.9, Mtb H37Rv 44.3% and Arbovirus anti -0.1.
O=C(NC1CCCc2ccccc21)c1cn2ccccc2n1 (centres undefined) was read as Mtb bLac sens 0.1, RecA splice inh -2.2, Mtb H37Rv -4.9% and Arbovirus anti 14.5.
For CCN(CCCNC(=O)C1CCC(=O)N1Cc1ccc(C)cc1)c1cccc(C)c1 (centres undefined) the results were Mtb bLac sens -5.7, YopH PTP inh -18.9, RecA splice inh -2.1, Mtb H37Rv -0.4% and Arbovirus anti 1.7.
Screening Cc1ccc(C(=O)N/C(=C\c2ccco2)C(=O)NCCN2CCCCC2)cc1C returned Mtb bLac sens -3.2 and RecA splice inh -2.0.
For CCn1c(COc2ccc(=O)n(-c3ccccc3)n2)n[nH]c1=S the results were Mtb bLac sens -5.5, RecA splice inh 0.8, Mtb H37Rv -5.2% and Arbovirus anti 0.9.
For Cc1ccc(NCc2ccc(O)c3ncccc23)cc1C the results were Mtb bLac sens 1.5, RecA splice inh -3.6, Mtb H37Rv 9.7% and Arbovirus anti 2.0.
For O=C(c1cccc(F)c1)N1CCc2ccccc2C1 the results were Mtb bLac sens 2.5, YopH PTP inh -8.9, RecA splice inh 1.7, Mtb H37Rv -5.1% and Arbovirus anti 15.5.
Screening O=C(CCN1C(=O)/C(=C/c2ccc(F)cc2)SC1=S)NNC(=O)c1cccnc1 returned Mtb bLac sens -6.5, YopH PTP inh -15.5, RecA splice inh -1.9, Mtb H37Rv -2.0% and Arbovirus anti 6.3.
Cc1cc(OC(=O)c2ccccc2Cl)c([N+](=O)[O-])c(=O)[nH]1 was read as Mtb bLac sens -1.6 and RecA splice inh -0.8.
For COc1ccc(N2CC(C(=O)N3CCN(C(=O)c4ccco4)CC3)CC2=O)cc1 (centres undefined) the results were Mtb bLac sens 5.8 and RecA splice inh -0.5.
`CC1CCC/C(=N\Nc2ccc(Cl)c(C(=O)O)c2)C1` (centres undefined) gave Mtb bLac sens 12.0, YopH PTP inh -25.0, RecA splice inh -3.5, Mtb H37Rv -1.5% and Arbovirus anti 4.1.
For CCOc1ccc(CNC(=O)c2cc3oc4ccccc4c3n2C)cc1 the results were Mtb bLac sens -7.5, YopH PTP inh 1.2, RecA splice inh -1.2, Mtb H37Rv 3.5% and Arbovirus anti 2.4.
O=C(O)CN1C(=O)/C(=C/c2ccc(N3CCCCC3)o2)SC1=S was read as Mtb bLac sens 4.1, RecA splice inh -4.3 and Mtb H37Rv 11.7%.
For COc1cc(OC)c(-c2cc(C(=O)O)ccc2OC)c(OC)c1 the results were Mtb bLac sens 0.9, YopH PTP inh -32.1, RecA splice inh 0.2, Mtb H37Rv 28.2% and Arbovirus anti -2.3.
C=CCNC(=O)c1cnc2n(c1=O)CCS2 was read as Mtb bLac sens -0.2, YopH PTP inh -18.1, RecA splice inh 0.6, Mtb H37Rv -5.0%, Arbovirus anti 4.7 and Arbovirus anti repeat 0.8.
`Cc1cc(=O)oc2cc(OCC(=O)NCc3ccco3)ccc12` gave Mtb bLac sens 1.5, YopH PTP inh -12.7, RecA splice inh -1.9, Mtb H37Rv -16.3% and Arbovirus anti -3.1.
`CCOC(=O)CSc1nc2sc3c(c2c(=O)n1C1CCCCC1)CCN(C)C3` gave Mtb bLac sens 63.6, YopH PTP inh -1.4, RecA splice inh 34.4*, Mtb H37Rv 12.6% and Arbovirus anti 9.3.
For COc1ccc(Cc2nc3ccc(S(=O)(=O)N4CCOCC4)cc3[nH]2)cc1OC the results were Mtb bLac sens -5.8, YopH PTP inh 9.3, RecA splice inh 0.9, Mtb H37Rv 1.0% and Arbovirus anti 12.9.
CCOC(=O)Cc1csc(SC(C)C(=O)NC2CCCCC2C)n1 (centres undefined) was read as Mtb bLac sens 5.7 and RecA splice inh 0.4.
CC1(C)CC(NC(=S)Nc2ccc(S(N)(=O)=O)cc2)CC(C)(C)N1 was read as Mtb bLac sens -7.1, RecA splice inh -3.3, Mtb H37Rv -7.7% and Arbovirus anti 13.7.
For CC1CCCCC1NC(=O)CCc1nc2sc3c(c2c(=O)[nH]1)CCCC3 (centres undefined) the results were Mtb bLac sens -10.9 and RecA splice inh -3.6.
For O=C(NCCC1CCCCN1S(=O)(=O)c1ccccc1)C(=O)NCc1ccccc1 (centres undefined) the results were Mtb bLac sens -8.5 and RecA splice inh -2.1.
`O=c1c(Cc2ccc(F)cc2)c(O)ccn1CCc1cnc[nH]1` gave Mtb bLac sens -5.3, RecA splice inh -2.2, Mtb H37Rv 0.3% and Arbovirus anti -4.6.
Screening CCOC(=O)N1CCC(N2C(=O)c3ccccc3C2Nc2ccc3c(c2)OCCO3)CC1 (centres undefined) returned Mtb bLac sens inconclusive, YopH PTP inh -38.5, RecA splice inh 2.1, Mtb H37Rv 5.8% and Arbovirus anti 0.7.
Screening O=C(NN1c2ccccc2CCc2ccccc21)c1ccccc1Br returned Mtb bLac sens 14.2, YopH PTP inh -33.7, RecA splice inh 0.9, Mtb H37Rv 3.1% and Arbovirus anti -6.3.
N=c1n(CCO)c2ccccc2n1Cc1ccccc1 was read as Mtb bLac sens -5.1, YopH PTP inh -5.2, RecA splice inh -1.3, Mtb H37Rv -1.3% and Arbovirus anti 6.0.
For CCOC(=O)Nc1ccc(S(=O)(=O)Nc2cc(C)nc(C)n2)cc1 the results were Mtb bLac sens -0.9, YopH PTP inh -8.2, RecA splice inh -1.9, Mtb H37Rv 0.0% and Arbovirus anti 11.2.
NC(=O)c1cnn(-c2cc(Oc3ccccc3)ncn2)c1N was read as Mtb bLac sens -0.8, RecA splice inh -0.2, Mtb H37Rv 5.5% and Arbovirus anti 6.1.
`O=C(CSc1nccc(-c2ccc(Br)cc2)n1)NCCc1ccccc1` gave Mtb bLac sens 0.0, YopH PTP inh -26.3, RecA splice inh -3.3, Mtb H37Rv -0.4% and Arbovirus anti 5.8.
Screening Cc1onc(-c2ccc(Cl)cc2Cl)c1C(=O)/C=C/N(C)C returned Mtb bLac sens 6.6, RecA splice inh -0.5 and Mtb H37Rv -12.1%.
Screening Cc1ccc(CNC(=O)C(=O)NCC2OCCN2C(=O)c2ccc3c(c2)OCO3)cc1 (centres undefined) returned Mtb bLac sens -10.7, RecA splice inh -1.7, Mtb H37Rv -6.6% and Arbovirus anti -5.8.
COCCNC(=O)C(c1ccncc1)N(C(=O)c1sc(C)nc1C)c1cccc(C)c1 (centres undefined) was read as Mtb bLac sens 5.4, RecA splice inh -8.6, Mtb H37Rv -4.2% and Arbovirus anti -0.4.
`Cc1ccc(C(=O)N/N=C/C=C/c2ccccc2)o1` gave Mtb bLac sens 2.1, RecA splice inh 1.2, Mtb H37Rv 0.8% and Arbovirus anti 7.9.
Screening COc1ccc(NC(=O)C2C3C=CC(O3)C2C(=O)O)cc1 (centres undefined) returned Mtb bLac sens -4.3 and RecA splice inh -2.7.
Screening COc1ccc(NC(=O)CS(=O)(=O)c2ccccc2Cl)cc1 returned Mtb bLac sens -9.4 and RecA splice inh -3.7.
For O=C(Nn1c(SCc2ccc(F)cc2)nc2ccsc2c1=O)c1ccccc1 the results were Mtb bLac sens 18.9, YopH PTP inh -12.9, RecA splice inh 4.9, Mtb H37Rv 10.8% and Arbovirus anti -3.0.
Screening COc1ccc(C(=O)N=c2sccn2C)cc1 returned Mtb bLac sens -12.0, RecA splice inh 0.9, Mtb H37Rv 1.9% and Arbovirus anti 6.0.
For O=C(NCc1nc2ccccc2[nH]1)C1=C[C@H](C2CCCCC2)C[C@H](OCCCCO)O1 the results were Mtb bLac sens 4.4, RecA splice inh 4.7 and Mtb H37Rv -4.9%.
Screening COC(=O)c1ccccc1NC(=O)CN(C)S(=O)(=O)c1ccc(OC)cc1 returned Mtb bLac sens -1.0, YopH PTP inh -34.6, RecA splice inh 0.6, Mtb H37Rv -5.3% and Arbovirus anti -2.5.
Screening CCOc1cc(C(=S)N2CCOCC2)ccc1OS(=O)(=O)c1ccc(C)cc1 returned Mtb bLac sens -4.6 and RecA splice inh 4.5.
CCCCN(C(=O)NC(=O)Nc1cccc(C)c1C)S(C)(=O)=O was read as Mtb bLac sens 8.2, YopH PTP inh -8.6, RecA splice inh -1.2, Mtb H37Rv -5.0% and Arbovirus anti 0.6.
Screening CCCn1c2ccc(F)cc2c2nnc(SCCN3CCCCC3)nc21 returned Mtb bLac sens 88.6 and RecA splice inh 3.7.
For CCOC(=O)c1sc(NC(=O)c2ccc(S(=O)(=O)N3CCOCC3)cc2)nc1-c1ccccc1 the results were Mtb bLac sens -2.0, YopH PTP inh -28.5, Mtb H37Rv 74.3% and Arbovirus anti 20.7.
Screening Cn1c(=O)n(Cc2ccccc2F)c(=O)c2c1nc1n2CCN1Cc1ccco1 returned Mtb bLac sens 1.2, RecA splice inh 0.6, Mtb H37Rv 3.9% and Arbovirus anti 19.1.
`COc1ccc(CNC(=O)CSc2nnc3nc(C)cc(C)n23)cc1OC` gave Mtb bLac sens -1.6, Mtb H37Rv -6.7% and Arbovirus anti 0.8.
CC(C)(C)c1ccc(NC(=O)c2ccsc2)cc1 was read as Mtb bLac sens -3.4, RecA splice inh 0.9 and Mtb H37Rv -2.7%.

2 successive compounds already listed:
Screening COc1ccc(NC(=O)C2C3C=CC(O3)C2C(=O)O)cc1 (centres undefined) returned Mtb bLac sens -4.3 and RecA splice inh -2.7.
Screening COc1ccc(NC(=O)CS(=O)(=O)c2ccccc2Cl)cc1 returned Mtb bLac sens -9.4 and RecA splice inh -3.7.

High-throughput results (PubChem)

An excerpt; rates above refer to the full screens.
